# p53 reactivation: re-activators of mutant p53. H1299 p53-A138V BP100-luciferase reporter, luminescence, 24 h. Potency, µM (series often up to 92.2 µM), inactives show at the top dose activity change, positive = activation, actives largely listed as activators. 0.063% of 320,000 active. AID 504706; note: % of control where 0% means no effect; nearly all actives have a fitted effect of over 45% in size
#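 H1299 (p53-null), stable ts p53-A138V + BP100-Luc; 1000 cells/well, Opti-MEM/10% FBS; cpd 4 pt, 1:5; 24 h, 37 deg C, 5% CO2; detection reagent 10 min RT; luminescence.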
# MBNL1-CUG inh: MBNL1-poly(CUG) RNA binding inhibition; Potency, µM (titrated, usually from 57.5 µM), for inactives: at the top dose activity change, negative = inhibition, actives largely listed as inhibitors; Q9NR56; TR-FRET MBNL1-His/biotin-(CUG)12 binding, 665/545 ratio; 0.036% of 280,000 active; AID 2675; active = well fitted inhibition curve with a large enough effect in the signal ratio, with a control signal flat, not every such curve was filed as active; inconclusive = small, poorly fitted or top-dose-only effect, or effect the other way, or a change in a side signal; inactive = no such curve, though single readings can be large or run the other way; the % refers to the signal ratio; note: % is set by controls: 0 for no effect and ±100 for the full control effect
# Target sequence (Q9NR56 whole entry, looked up): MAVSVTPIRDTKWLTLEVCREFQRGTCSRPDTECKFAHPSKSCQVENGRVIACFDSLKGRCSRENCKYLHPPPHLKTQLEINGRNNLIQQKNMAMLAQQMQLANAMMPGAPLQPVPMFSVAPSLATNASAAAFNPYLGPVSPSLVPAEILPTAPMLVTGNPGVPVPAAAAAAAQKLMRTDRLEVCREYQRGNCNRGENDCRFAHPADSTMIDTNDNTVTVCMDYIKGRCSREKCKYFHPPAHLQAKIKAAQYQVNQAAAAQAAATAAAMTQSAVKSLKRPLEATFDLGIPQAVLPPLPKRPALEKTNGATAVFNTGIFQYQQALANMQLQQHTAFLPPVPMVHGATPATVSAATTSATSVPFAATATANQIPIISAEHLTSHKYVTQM
#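 TR-FRET readout: Ex 340 nm, 665/545 nm emission ratio, normalized to buffer-only (basal) and MBNL1-(CUG)12 controls. Complex of MBNL1-His with Biotin-(CUG)12, compounds 92 nM–58 uM, incubated 60 min at room temperature.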
# RORg inh: inhibitors of mouse ROR gamma transcriptional activity; Potency, µM (top dose mostly 53.6 µM), without a hit: top-dose activity change, negative = inhibition, hits mostly inhibitors; P51450; Drosophila S2 Gal4-RORgamma UAS-luciferase reporter, 20 h; 5.4% of 310,000 active; note: % is set by controls: 0 for no effect and ±100 for the full control effect; nearly all actives have a fitted effect of over 60% in size
#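 Read-out: Photinus luciferase luminescence; inhibitors lower reporter signal. Insect Schneider cells with Gal4-ROR gamma fusion under metallothionein promoter, UAS reporter; 700 uM final copper sulfate induction, 20 hr, ambient temperature.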
# FLuc modulator: counter-screen for miR-21 project: firefly luciferase inhibitors or activators. purified FLuc, Km substrates, luminescence inhibition. Potency, µM (titrated, usually from 57.5 µM), inactives show at the top dose activity change, negative = inhibition, hits mostly inhibitors. 6.9% of 360,000 active;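 note: plate controls were vehicle for no effect and reference inhibitor for full effect; nearly all actives have a fitted effect of over 55% in size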
# Target sequence (P08659 whole entry, looked up): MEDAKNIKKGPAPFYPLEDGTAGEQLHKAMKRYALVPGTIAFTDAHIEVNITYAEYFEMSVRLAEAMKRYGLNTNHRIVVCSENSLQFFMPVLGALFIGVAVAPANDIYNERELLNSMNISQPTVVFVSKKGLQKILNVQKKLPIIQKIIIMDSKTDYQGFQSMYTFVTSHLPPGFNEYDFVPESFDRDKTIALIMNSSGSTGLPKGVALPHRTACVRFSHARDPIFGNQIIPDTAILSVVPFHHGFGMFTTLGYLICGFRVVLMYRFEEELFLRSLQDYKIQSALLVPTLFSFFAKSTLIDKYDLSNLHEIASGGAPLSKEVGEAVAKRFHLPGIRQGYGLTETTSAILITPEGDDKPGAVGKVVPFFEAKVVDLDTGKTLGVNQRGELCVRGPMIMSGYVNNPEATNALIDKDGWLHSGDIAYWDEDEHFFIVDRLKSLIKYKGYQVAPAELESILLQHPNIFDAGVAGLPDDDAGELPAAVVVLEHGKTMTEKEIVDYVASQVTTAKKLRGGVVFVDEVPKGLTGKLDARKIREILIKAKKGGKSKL
#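 Purified P. pyralis luciferase, 10 nM final, with Km-level 10 uM D-luciferin and 10 uM ATP in 50 mM Tris acetate pH 7.5, 10 mM Mg acetate, 0.01% Tween-20, 0.05% BSA; 6-point qHTS titration about 60 µM downward; luminescence read.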
# ELG1 genotox: genotoxicity induction in ELG1-luciferase HEK293T cells; HEK293T ELG1-luciferase reporter, luminescence, 16 h; Potency, µM (doses to about 46 µM), for inactives: at the highest dose activity change, positive = activation, actives largely listed as activators; 1.3% of 330,000 active; note: % of control where 0% means no effect; nearly all actives have a fitted effect of over 60% in size
#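 Reporter readout depends on ELG1 protein level, which increases with genetic stress. After 16 hr compound exposure at 37 °C, luciferase activity was quantified using ONE-Glo.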
# BRCA1 expr up: increases BRCA1 expression | 1.1% of 380,000 active | MCF7-BRCA1-FFLuc reporter, luminescence, 48 h; response scale: scaled: vehicle 0%, 10 µM genistein 100% | Potency, µM (titrated, usually from 46.1 µM), inactives show top-dose activation, hits mostly activators; note: nearly all actives have a fitted effect of over 80% in size; some results filed as inactive show a strong effect at the top dose
#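 Using MCF7 cells harboring a BRCA1 firefly luciferase reporter, plated 2 h before compound pinning, the screen measured luminescence after 48 h incubation. Responses were normalized to DMSO and 10 microM genistein, then fitted for concentration-effect.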
# uPA generation: inhibitors of cell surface uPA generation; cell surface uPA generation assay, qHTS; Potency, µM (top dose mostly 38.3 µM), without a hit: at the highest dose activity change, negative = inhibition, most hits filed as inhibitors; 0.31% of 330,000 active; active = well fitted inhibition curve with a large enough effect; inconclusive = small, poorly fitted or top-dose-only effect; inactive = no such curve, though single readings can be large or run the other way; tested in mouse RAW 264.7 cells; note: % is set by controls: 0 for no effect and ±100 for the full control effect; nearly all actives have a fitted effect of over 55% in size
# VP16 counter: inhibits Gal4-VP16 luciferase reporter, ROR gamma counter-screen; Drosophila S2 Gal4-VP16 UAS-luciferase, luminescence, 20 h; Potency, µM (doses to about 53.6 µM), for the others: at the top dose activity, negative = inhibition, usual class: inhibitors; 3.5% of 310,000 active;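 note: Gal4-VP16 expression switched on by copper sulfate through the metallothionein promoter; % is set by controls: 0 for no effect and ±100 for the full control effect; nearly all actives have a fitted effect of over 50% in size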
# Rab9 prom act: activates the Rab9 promoter. 2.8% of 320,000 active. Huh7 Rab9 promoter-luciferase reporter, luminescence, 24 h. AID 485297. Potency, µM (highest dose often 9.22 µM), without a hit: top-dose activation, negative = inhibition, hits mostly activators; note: % of control where 0% means no effect; nearly all actives have a fitted effect of over 60% in size
#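 Huh7 cells stably carrying a Rab9 promoter-luciferase reporter, 1500 cells per well in OP-MEM I with 10% FBS, treated with compound 24 hours at 37C. Luciferase activity read by luminescence after 10 minutes with Amplite reagent.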
# NPC1 promoter act: activators of NPC1 promoter; AID 485313; Potency, µM (titrated, usually from 9.22 µM), without a hit: top-dose activation, most hits filed as activators; 2.4% of 320,000 active; Huh7 NPC1 promoter luciferase reporter, 24 h;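 note: % of control where 0% means no effect; nearly all actives have a fitted effect of over 60% in size; reporter is driven by a mutant NPC1 promoter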
#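 Stably transfected Huh7 (NPC1 promoter→luciferase), 1500 cells/well in Opti-MEM + 10% FBS, 2 h settle, then compound 24 h at 37 °C. Luminescence after 10 min with Amplite reagent.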
# Numbers without * were called inactive; ? = inconclusive; / = not tested or not shown; & = joins results of further samples; [ ] = remark or other dose. Unless noted, calls come from the whole dose curve; as a rule, active = well fitted curve in the direction sought with a large enough effect; inconclusive = small, poorly fitted or top-dose-only effect, or another doubt; inactive = no such curve, though single readings can be large; an effect the other way counts as inactive or inconclusive. Potency is the fitted concentration of half-maximal effect. A portion of the library. The share of hits here may be higher or lower than overall.
SMILES,p53 reactivation,MBNL1-CUG inh,RORg inh,FLuc modulator,ELG1 genotox,BRCA1 expr up,uPA generation,VP16 counter,Rab9 prom act,NPC1 promoter act
O=C(COc1cccc2ccccc12)NNC(=O)Nc1ccccc1,1%,-13%,5%,0%,7%,-28%,7%,1%,-2%,-2%
COc1cccc(CNCc2ccc(OC)c3ccccc23)c1OC,4%,10%,-8%,0%,-11%,-22%,-11%,3%,-3%[1.84 µM],-7%
COc1ccc(/C=C/C(=O)c2ccoc2)cc1,27%,-6%,9%,4.3µM*,6%,73%,-11%,4%,23%,20%
COc1cc2c(cc1OC)CN(C(=O)c1ccncc1)CC2,-4%,4%,-1%,-1%,0%,13%,-4%,-9%,-2%,4%
FC(F)(F)c1ccc(Nc2nnnc3ccccc23)cc1,2%,/,?,4%,9%,52%,1%,17%,?,23%
CCOc1ccccc1C(=O)Nc1ccc2c(c1)C(=O)NC2=O,12%,5%,28%[1.91 µM],0%,5%,-32%,2%,-7%,2%,3%
Cc1ccc(Cn2cccc(NC(=O)NCc3ccccc3)c2=O)cc1,-1%,3%,5%,?,-5%,2%,10%,0%,-4%,-4%
O=C(N[C@@H](Cc1ccccc1)C(=O)NCCc1c[nH]c2ccccc12)c1ccco1,-1%,-1%,-4%,2%,-5%,-26%,-2%,5%,-1%,1%
COc1ccc(C(CCNCc2ccc(OC(C)C)cc2)c2ccccc2OC)cc1 (centres undefined),-1%,-8%,?,1%,-7%,-93%,0%,?,-7%,-5%
Cc1ccc(C(=O)COC(=O)CCc2nc3ccccc3[nH]c2=O)cc1C,-1%,-9%,9%,?,0%,0%,-1%,-9%,-2%,1%
O=C(CSc1nnc(-c2cccs2)o1)c1cccs1,17%,258%[activator],4%,9.5µM*,?,92%,-9%,-1%,2.8µM*,1.6µM*
COc1ccc(CNCCC(c2ccc(OC(C)C)cc2)c2ccccc2OC)cc1 (centres undefined),-4%,-4%,?,0%,-6%,-70%,?,?,-5%[1.84 µM],-6%
COC(=O)c1ccc(C2NCCc3cc(OC)c(OC)cc32)cc1 (centres undefined),-1%,1%,5%,2%,2%,0%,7%,2%,-1%,-2%
Cc1ccc(NC(=O)NNS(=O)(=O)c2ccc(Br)cc2)cc1,3%,-7%,7%,-3%,3%,-2%,-8%,0%,-1%,-2%
CCOC(=O)c1c(-c2ccc(F)cc2)cn2ccccc12,-3%,13%,?,6%,-3%,-21%,5%,2%,4%,-3%
COc1cc(OC)c(/C=C2\SC(=O)N(CC(=O)Nc3ccccc3F)C2=O)c(OC)c1,/,1%,-3%[1.91 µM],0%,?,-15%,29%,-23%,0%,-5%
C/C(=N\NC(=O)c1ccc(Br)cc1)c1ccccc1,9%,-2%,-37%,3.4µM*,?,?,-9%,-5%,1.3µM*,0.56µM*
NS(=O)(=O)c1cccnc1Nc1cccc(Cl)c1Cl,/,3%,17%,-19%,/,64%,-4%,?,/,/
N#Cc1cc2ccccc2nc1SCC(=O)Nc1ccc(S(=O)(=O)N2CCCC2)cc1,-2%,?,5%,-1%,-8%,-54%,-10%,-4%,0%,-6%
COc1ccc(Cn2c(=O)[nH]c3cc(C(=O)N4CCN(c5ccccc5)CC4)ccc3c2=O)cc1,-6%,0%,0%,1%&-2%,1%,-7%&14%,-5%,0%,-1%,-4%
COc1cc(O)ccc1C(=O)CCc1ccc(O)cc1,-7%,-3%,-6%,-6%,11%,29%,4%,19%,-2%,3%
CCOc1cc(/C=N/N=C(\N)c2nonc2N)cc(Br)c1OCc1cccc2ccccc12,-3%,-3%,13µM*,0%,?,-73%,-1%,?,-20%,-16%
Cc1ccc(NS(=O)(=O)c2ccc(C)c(NC(=O)COc3ccc4ccccc4c3)c2)c(C)c1,17%,20%,?,-17%,-17%,-47%,8%,-4%,-24%,-17%
COc1cccc(-n2nc3c(=S)[nH]nc(C)c3c2C)c1,10%,37%[activator],-28%,3%,9%,-1%,0%,-2%,-5%,8%
COc1ccc(CN2CCCC(C(=O)c3ccc4c(c3)OCO4)C2)c(F)c1 (centres undefined),4%,?,-4%,-1%,-3%,-26%,-5%,12%,9%,-5%

# 2 compounds drawn at random from those above, as already listed:
SMILES,p53 reactivation,MBNL1-CUG inh,RORg inh,FLuc modulator,ELG1 genotox,BRCA1 expr up,uPA generation,VP16 counter,Rab9 prom act,NPC1 promoter act
COc1ccc(/C=C/C(=O)c2ccoc2)cc1,27%,-6%,9%,4.3µM*,6%,73%,-11%,4%,23%,20%
CCOc1cc(/C=N/N=C(\N)c2nonc2N)cc(Br)c1OCc1cccc2ccccc12,-3%,-3%,13µM*,0%,?,-73%,-1%,?,-20%,-16%

# A different layout for part of the listing above.
compound	p53 reactivation	MBNL1-CUG inh	RORg inh	FLuc modulator	ELG1 genotox	BRCA1 expr up	uPA generation	VP16 counter	Rab9 prom act	NPC1 promoter act
Cc1ccc(NC(=O)NNS(=O)(=O)c2ccc(Br)cc2)cc1	3%	-7%	7%	-3%	3%	-2%	-8%	0%	-1%	-2%
CCOC(=O)c1c(-c2ccc(F)cc2)cn2ccccc12	-3%	13%	?	6%	-3%	-21%	5%	2%	4%	-3%
COc1cc(OC)c(/C=C2\SC(=O)N(CC(=O)Nc3ccccc3F)C2=O)c(OC)c1	/	1%	-3%[1.91 µM]	0%	?	-15%	29%	-23%	0%	-5%
C/C(=N\NC(=O)c1ccc(Br)cc1)c1ccccc1	9%	-2%	-37%	3.4µM*	?	?	-9%	-5%	1.3µM*	0.56µM*
NS(=O)(=O)c1cccnc1Nc1cccc(Cl)c1Cl	/	3%	17%	-19%	/	64%	-4%	?	/	/
N#Cc1cc2ccccc2nc1SCC(=O)Nc1ccc(S(=O)(=O)N2CCCC2)cc1	-2%	?	5%	-1%	-8%	-54%	-10%	-4%	0%	-6%
COc1ccc(Cn2c(=O)[nH]c3cc(C(=O)N4CCN(c5ccccc5)CC4)ccc3c2=O)cc1	-6%	0%	0%	1%&-2%	1%	-7%&14%	-5%	0%	-1%	-4%
COc1cc(O)ccc1C(=O)CCc1ccc(O)cc1	-7%	-3%	-6%	-6%	11%	29%	4%	19%	-2%	3%
CCOc1cc(/C=N/N=C(\N)c2nonc2N)cc(Br)c1OCc1cccc2ccccc12	-3%	-3%	13µM*	0%	?	-73%	-1%	?	-20%	-16%
Cc1ccc(NS(=O)(=O)c2ccc(C)c(NC(=O)COc3ccc4ccccc4c3)c2)c(C)c1	17%	20%	?	-17%	-17%	-47%	8%	-4%	-24%	-17%
COc1cccc(-n2nc3c(=S)[nH]nc(C)c3c2C)c1	10%	37%[activator]	-28%	3%	9%	-1%	0%	-2%	-5%	8%
COc1ccc(CN2CCCC(C(=O)c3ccc4c(c3)OCO4)C2)c(F)c1 (centres undefined)	4%	?	-4%	-1%	-3%	-26%	-5%	12%	9%	-5%

# Further structures.
SMILES,p53 reactivation,MBNL1-CUG inh,RORg inh,FLuc modulator,ELG1 genotox,BRCA1 expr up,uPA generation,VP16 counter,Rab9 prom act,NPC1 promoter act
Cc1ccc(S(=O)(=O)N2CCOCC2)cc1C(=O)Nc1ccc(S(=O)(=O)Nc2nccs2)cc1,7%,-1%,-1%,0%,3%,2%,8%,0%,-9%,-3%
O=C(Cc1cccc2ccccc12)NC(NC(=S)Nc1ccccc1Cl)C(Cl)(Cl)Cl (centres undefined),-7%,9%,25%,3%,0%,-83%,-5%,?,-1%,0%
COc1ccc(NC(=O)CSc2nc(NS(=O)(=O)c3ccc(C)cc3)cc(=O)[nH]2)cc1,1%,0%,-10%,-2%,7%,-25%,/,-6%,-5%,-4%
N#Cc1c(NC(=O)CSc2nc(-c3ccco3)cc(C(F)(F)F)n2)sc2c1CCCC2,-2%,0%,5%,13%,0%,-11%,7%,-2%,-7%,1%
COc1ccc(/C=N/NC(=O)c2c(Br)cnn2C)c2ccccc12,6%,3%,20µM*,-2%,1%,-46%,0%,2.8µM*,-2%,1%
CC1CCN(C(=O)CSc2nnc(-c3cccs3)o2)CC1,24%,-3%,-2%,-14%,20%,46%,4%,?,21%,13%
Fc1ccc(-n2ncc3c(SCc4cccnc4)ncnc32)cc1,6%,-3%,?,6.7µM*,23µM*,?,1%,-1%,?,25%
CCOC(=O)c1ccccc1NC(=O)c1c(O)c2ccccc2n(CC)c1=O,-7%,5%,-3%,3%,-12%,-38%,-3%,-2%,-5%,-3%
CCn1c(=O)c(C(=O)Nc2ccsc2C(=O)OC)c(O)c2ccccc21,?,4%,5%,-8%,-4%,/,/,29%,-1%,17%
CC(C)(C)C(=O)NC(NC(=S)Nc1sc2c(c1C#N)CCCC2)C(Cl)(Cl)Cl (centres undefined),-1%,4%,10µM*,-11%,-1%,-57%,2%,?,-6%,0%
O=C(NC(=S)Nc1nc(-c2ccccc2)cs1)c1cncc(Br)c1,6%,1%,1.6µM*,2%,-9%,11%,-5%,?,-5%,2%
O=C(/C=C/c1ccccc1)NC(NC(=S)Nc1cccc(Cl)c1)C(Cl)(Cl)Cl (centres undefined),-26%,-1%,?,3%,-6%,-89%[inhibitor],-9%,18µM*,10%,-4%

# Assay outcomes deposited in PubChem by National Center for Advancing Translational Sciences (NCATS).
